# Bioassay records (PubChem BioAssay)
# VDR inh – vitamin D3 receptor (human) inhibition; P11473; VDR-SRC2-3 peptide fluorescence polarization, 2 h; Potency, µM, without a hit: max response, negative = inhibition, actives largely listed as inhibitors; 0.93% of 400,000 active; active = well fitted inhibition curve with a large enough effect; inconclusive = small, poorly fitted or top-dose-only effect, or another doubt; inactive = no such curve, though single readings can be large or run the other way; note: series mostly up to about 120 µM
# Target sequence (P11473 whole entry, looked up): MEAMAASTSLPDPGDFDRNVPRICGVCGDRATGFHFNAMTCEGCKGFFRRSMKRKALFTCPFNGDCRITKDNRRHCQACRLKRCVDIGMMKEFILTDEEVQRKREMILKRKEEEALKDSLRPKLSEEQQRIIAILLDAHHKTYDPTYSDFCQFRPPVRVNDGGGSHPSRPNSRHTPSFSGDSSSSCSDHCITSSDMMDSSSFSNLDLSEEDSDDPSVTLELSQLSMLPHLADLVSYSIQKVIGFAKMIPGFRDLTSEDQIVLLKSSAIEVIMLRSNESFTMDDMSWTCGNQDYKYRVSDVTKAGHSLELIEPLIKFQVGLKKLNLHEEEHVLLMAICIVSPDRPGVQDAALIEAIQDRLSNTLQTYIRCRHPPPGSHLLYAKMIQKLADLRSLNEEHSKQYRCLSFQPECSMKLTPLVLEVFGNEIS
#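 Fluorescence polarization assay of small-molecule disruption of VDR binding to coregulator peptide SRC2-3. Compounds and controls pin-transferred, then read after 2 h incubation at ambient room temperature.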
# Active calls of the source: *; u = inconclusive; & = joins results of further samples. % is set by controls: 0 for no effect and ±100 for the full control effect; potency is the fitted concentration of half-maximal effect. These rows are one share of the data. The share of hits here may be higher or lower than overall.
SMILES,VDR inh
COc1cc(/C=C(\C#N)C(=O)Nc2nnc(C(F)(F)F)s2)ccc1OCc1ccc(C(F)(F)F)cc1C(F)(F)F,u
O=[N+]([O-])c1ccc(Nc2ccccc2F)nc1,-9%
O=Cc1ccc(OC(=O)C2CC(=O)N(c3ccc(F)cc3)C2)cc1 (centres undefined),-26%
CCc1ccccc1NC(=O)C1CCCC1,-3%
CC(=O)Nc1ccc(S(=O)(=O)N[C@@H](C)C(=O)OCC(=O)c2ccc(C)cc2)cc1,0%
O=C1c2ccccc2C(=O)N1CC(O)COc1ccccc1Cl (centres undefined),-17%
CCN1CCCc2cc(CN(CCN3CCOCC3)C(=S)Nc3ccc(OC)cc3)ccc21,-18%
C/C(=C/c1ccccc1)C(=O)N1CCN(c2ccc(F)cc2)CC1,-23%
CC(C)(C)n1ncc2c(=O)n(Cc3cccc(Cl)c3)cnc21,-13%
Cc1ccccc1-c1nnc(-c2cccs2)o1,-19%
Clc1cccc(Cl)c1COn1nnc2ccccc21,2%
CCn1cc(C(=O)Nc2cccc(Cl)c2)c2cc(OC)c(OC)cc2c1=O,10%
CCc1ccc(S(=O)(=O)c2nnn3c2nc(NC(C)C)c2cc(Cl)ccc23)cc1,8%
O=S1(=O)C=C(Sc2nnc(-c3ccccc3)o2)c2ccccc21,u
CCOC(=O)c1cnc2nc(Cc3ccccc3)[nH]n2c1=O,-8%
Cn1c(=O)c2c(nc(SCc3ccc(F)cc3)n2C)n(C)c1=O,-14%
CN(Cc1ccccc1)C(=O)CCS(=O)(=O)c1ccc2c(c1)n(C)c(=O)c(=O)n2C,-14%
CC(C(=O)NCC1CCCCC1)N(C)CC(=O)Nc1ccc(N2CCOCC2)cc1 (centres undefined),-10%
C[C@H](CO)N1C[C@H](C)[C@@H](CN(C)C(=O)Nc2ccc3c(c2)OCO3)Oc2c(cccc2N(C)C)C1=O,-19%
CC(Sc1ccsc1[N+](=O)[O-])C(=O)NCCc1ccc(Cl)cc1 (centres undefined),11%
COc1ccc(-c2ccnc3c(C#N)cnn23)cc1,15%
Cc1ccc(S(=O)(=O)N(C)C)cc1NC(=O)COC(=O)c1ccc2c(c1)OCO2,-24%
O=C(NNC(=O)c1ccncc1)Nc1cccc(C(F)(F)F)c1,-7%
COc1ccc(CC(=O)Nc2nnc3n2CCS3)cc1,9%
CCCCNC(=O)c1ccc2c(=O)n(-c3ccccc3)c(=O)[nH]c2c1,-2%

# Taken from the results shown, two compounds:
SMILES,VDR inh
COc1ccc(CC(=O)Nc2nnc3n2CCS3)cc1,9%
CCCCNC(=O)c1ccc2c(=O)n(-c3ccccc3)c(=O)[nH]c2c1,-2%

# Other structures:
SMILES,VDR inh
Cn1c(=O)oc2cc(S(=O)(=O)N3CCC(C(=O)N4CCN(c5cccc(Cl)c5)CC4)CC3)ccc21,-15%
COc1cccc(CNc2ccc(F)c([N+](=O)[O-])c2)c1O,-4%
Cc1cccc(NC(=O)c2cccc(N3C(=O)C4C5CCC(C5)C4C3=O)c2)c1C (centres undefined),20%
Cc1ccc(NC(=O)CCN2CCN(CCO)CC2)cc1Br,0%
O=C(Nc1ccccc1)N1CCc2ccccc2C1,5%
Cc1ccc(CCN=c2c([N+](=O)[O-])nn(-c3ccccc3)n2O)cc1,-10%
CC(C)C(=O)Nc1ccc2c(c1)nc(CCN1CCN(C)CC1)n2C,-9%
O=C1NC2(O)C(=O)c3ccccc3C2(O)N1 (centres undefined),5%
CC(C)NS(=O)(=O)c1ccc(NC(=O)c2cccnc2)cc1,-6%
NC(=O)C1(N2CCCCC2)CCN(C2CC(=O)N(CCc3ccccc3)C2=O)CC1 (centres undefined),12%
CN1CCN(c2oc(-c3ccc([N+](=O)[O-])cc3)nc2C#N)CC1,-14%
CCN(CC)C(=O)c1[nH]cnc1C(=O)N[C@H](C)c1ccccc1,-5%
CCOC(=O)CCC(NC(=O)c1cncc(O)c1)C(=O)OCC (centres undefined),-2%
COc1cc2[nH]c(=O)n(CCC(=O)N3CCC(N4CCCCC4)CC3)c(=O)c2cc1OC,7%
Cc1noc(C)c1C(=O)Nc1cc(Cl)ccc1N1CCOCC1,-8%
S=C(Cc1ccccc1)NCCc1ccccc1,-8%
COc1ccc(C(=O)OCC(=O)c2ccc(C)c(S(=O)(=O)N3CCOCC3)c2)cc1OC,-2%
CC1=C(C(=O)Nc2ccccc2C)C(c2ccc(C)o2)C2=C(CCCC2=O)N1 (centres undefined),-11%
CC(=O)C12CC(C)=C(C)CC1CC1C3CCC4=CC(=O)CCC4(C)C3CCC12C (centres undefined),-18%
CCCNC(=O)C1(CC2CC(c3ccccc3)=NO2)CCN(C(=O)C2(C)CC2)CC1 (centres undefined),-18%
Cc1cccc(N2CCN(C(=O)c3ccc(CS(=O)Cc4ccc(Cl)cc4)o3)CC2)c1C (centres undefined),-6%
Cc1onc(-c2ccccc2)c1C(=O)NN1CCOCC1,-14%
O=C(NCCc1ccccn1)c1c(-c2ccsc2)sc2ccccc12,21%
CCn1cc(S(=O)(=O)NCc2ccc(OC)cc2)cn1,7%
CC(OC(=O)CC1CCCC1)C(=O)Nc1ccc(S(N)(=O)=O)cc1 (centres undefined),16%
# Later entries.
SMILES,VDR inh
COCCNc1ncnc2ccc(-c3ccccc3OC)cc12,-7%
CCCc1nnc(SCc2ccc(C(=O)OC)o2)n1N,8%
Cc1ccc2cc3cc(C(=O)Nc4ccc(F)cc4Cl)oc3nc2c1,-4%
O=c1c2ccccc2sn1-c1ccc(S(=O)(=O)N2CCCC2)cc1,u
CCc1nnc(NC(=O)NC(C)(C)C)s1,21%
CCOC(=O)N1CCN(S(=O)(=O)c2ccc(C(=O)N(CCN(CC)CC)c3nc4c(C)cccc4s3)cc2)CC1,-4%
CCCCNc1c(-c2ccc(Sc3ccc(OC)cc3)cc2)nc2cc(C)ccn12,-15%
Cn1ncc(C(=O)N2CCN(c3ccccc3)CC2)c1C1CCN(C(=O)OC(C)(C)C)CC1,4%
CCOc1ccc(NC(=O)Cn2nnc(C(=O)NCc3ccc(OC)cc3)c2N)cc1,-16%
CC(C)Nc1cccnc1N1CCN(C(=O)c2cc3cc(NS(C)(=O)=O)ccc3[nH]2)CC1,u
Cc1ccc(C(=O)CCC(=O)N2CCN(C(=O)c3ccco3)CC2)cc1,-3%
Cc1sc2ncnc(N(C)CCc3ccccn3)c2c1C,10%
COc1ccc(-c2nnc3n2N=C(C)CS3)cc1OC,-7%
Cc1ccc(C(=O)NCC(=O)OCC(=O)N2CC(C)OC(C)C2)cc1 (centres undefined),-8%
COc1ccc2[nH]c(CN3CCC(n4nccc4NC(=O)C4CC4)CC3)c(C)c2c1,-9%
N#Cc1ccc(NC(=O)c2nc(-c3ccccc3)n(-c3ccccc3)n2)cc1,12%
Cc1c(C(=O)Nc2cccc(S(=O)(=O)N3CCCC3)c2)oc2ccccc12,-10%
COc1ccc(/C=C2/C(=O)N(c3ccccc3)N=C2C)c(OC)c1,-6%
O=C(CN1C(=O)CCSc2ccccc21)Nc1cccc(F)c1,-4%
COc1ccc(/C=N/NC(=O)c2cccc(NC(=O)c3ccccc3Cl)c2)cc1,14%
COc1ccc(CCNC(=O)CN2CCC(n3nnc4cc(F)ccc43)CC2)cc1OC,9%
CN(C)C(=O)COC(=O)c1cccc(S(=O)(=O)N2CC3(C)CC2CC(C)(C)C3)c1 (centres undefined),-1%
Cn1c(=O)c2c(nc(CN3CCN(c4ccccc4)CC3)n2Cc2c(F)cccc2Cl)n(C)c1=O,0%
CC(=O)Nc1cccc(/C(C)=N/NC(=O)c2ccccc2Cl)c1,0%
O=C(NNC(=O)c1ccccc1F)c1ccco1,4%
# Next part.
SMILES,VDR inh
O=C(CN1N=C(c2ccc(Cl)cc2)CCC1=O)NCCN1CCc2ccccc2C1,5%
Cc1cccc(NC(=S)NC2CC3CCCC(C2)N3Cc2ccccc2)c1C (centres undefined),-2%
CCn1c(O)c(N=NC2=NC(=O)CS2)c2cc(C)ccc21,2%
CC(C)CC(=O)Nc1nc(-c2ccc(S(=O)(=O)N3CCOCC3)cc2)cs1,-18%
Cc1ccc2c(c1)c1c3n2CCNC3CCC1 (centres undefined),-2%&-17%
CCn1c2ccccc2c2n[nH]c(=S)nc21,-1%
O=C(c1ccccc1Cl)N1CCN(Cc2ccc3c(c2)OCO3)CC1,-8%
Cc1cccc(-n2ccnc2CN2CCC(CO)(Cc3ccccc3)CC2)c1,-15%
Cc1noc(C)c1C(=O)NCc1ccccc1,8%
Cn1c(SCC(=O)N/N=C/c2ccc([N+](=O)[O-])s2)nnc1-c1ccccc1,1%
CCn1c(O)c(/C=C2\C=NN=C2c2ccccc2)sc1=S,-4%
COc1ccccc1N(CC(N)=O)S(=O)(=O)c1ccc(C)cc1,-14%
COc1cccc(C(=O)N2CCN(C3CCC(c4ccccc4)CC3)CC2)c1OC (centres undefined),4%
O=C(OCCN1CCCCC1)c1cc2ccccc2o1,18%
COc1cc(CNCCSc2nnnn2C)cc(Br)c1OCc1ccccc1F,-1%
Cc1c(C(=O)N2CCN(c3ccccc3)CC2)oc2c(F)cccc12,u
Cc1cnc(C)c(N2CCN(Cc3nc(-c4ccccc4)no3)CC2)n1,-18%
CCOc1ccc(C2NCCc3cc(OC)c(OC)cc32)cc1OC (centres undefined),-1%
CN(C(=O)c1ccccc1C(=O)OCC(=O)c1ccc(F)c(F)c1)C1CCCCC1,-7%
CCNc1ncc2nc(-c3cc(F)cc(F)c3)c(=O)n(C3CC3)c2n1,-7%
O=C(NCCCc1ccccc1)N1CCOCC1,1%
COc1ccccc1OCC(=O)Nc1ccccc1C(=O)NC1CC1,-7%
O=C(NCCc1ccccn1)C(F)(F)C(F)(F)C(F)(F)C(F)(F)C(F)(F)C(F)(F)C(F)(F)C(F)F,-23%
O=C(NCc1ccco1)c1nnc(Cc2ccc(Cl)cc2)o1,-1%
O=C(O)c1cccc(-c2ccccc2)c1O,-9%
# Next section.
SMILES,VDR inh
CCOc1ccc(NC(=O)c2ccc(NC(=S)NC3CCCCC3)cc2)cc1,-15%
CCNC(=S)N/N=C/c1ccccc1[N+](=O)[O-],-21%
CC(=O)Nc1cccc(C(=O)NC2CCCc3c2cnn3-c2ccccc2F)c1 (centres undefined),-3%
CCn1cc(C(=O)OCC(=O)Nc2cccc(Cl)c2Cl)c(=O)c2ccc(C)nc21,-1%
Cc1cc(N2CCC(C)CC2)nc2ccc(N3C(=O)CCC3=O)cc12,4%
CCOC(=O)N1CCN(c2c(NCCN(C)Cc3ccccc3)c(=O)c2=O)CC1,9%
COc1cccc(/C=N/NC(N)=S)c1OCc1cccc(Cl)c1,-8%
CCOc1ccc(OCCC(=O)N2CCN(S(=O)(=O)c3ccc(F)cc3)CC2)cc1,1%
Cn1nc(C(=O)OCC(=O)Nc2ccc(Cl)cc2Cl)c2ccccc2c1=O,1%
COC(=O)c1cccc(NC(=O)CC2C(=O)NCCN2C(=O)c2ccc(F)cc2F)c1 (centres undefined),-13%
CC(=O)Nc1ccc(S(=O)(=O)NCC(=O)OCC(=O)NCc2ccc3c(c2)OCO3)cc1,9%
Cc1ccc(SCc2nc(-c3ccc(C(=O)NCC(C)c4ccccc4)cc3)oc2C)cc1 (centres undefined),3%
COc1ccc(CN2COc3ccc4c(-c5ccc(OC)cc5)cc(=O)oc4c3C2)cc1,1%
CN(C(=O)c1ccc(=O)n(Cc2ccc(Cl)cc2)c1)c1ccccc1,9%
COc1ccccc1C(=O)NCC(=O)NCCC(c1ccccc1)c1ccccc1,-6%
CN(Cc1ccon1)C(=O)CC1C(=O)NCCN1Cc1cccc(Oc2ccccc2)c1 (centres undefined),5%
C[C@@H]1C(=O)OC[C@H]1NC(=O)OCc1ccccc1,-10%
O=C(Cc1c(F)cccc1Cl)c1ccc(O)cc1O,-3%
CN=C(NC1CCCCC1)c1ccc([N+](=O)[O-])cc1,-21%
CCOCCCN(Cc1cc2cc(C)cc(C)c2[nH]c1=O)C(=O)N(CC)CC,4%
Cc1ccc(Cn2c(C)c3cnn(CC(=O)NCc4ccccc4)c(=O)c3c2C)cc1,13%
COc1cccc(N2CCN(C(=O)c3oc4ccccc4c3NC(=O)Cc3ccc(OC)c(OC)c3)CC2)c1,5%
Cc1ccc(N(C)S(=O)(=O)c2cccc(C(=O)Nc3nnc(C4CC4)s3)c2)cc1,-10%
CCOC(=O)c1c(S(=O)(=O)N2CCCC(C(=O)NCc3ccc(Cl)cc3)C2)c(C)n(C)c1C (centres undefined),12%
O=C(Nc1c(Cl)cc(Cl)cc1C(=O)NCCN1CCOCC1)c1cccc([N+](=O)[O-])c1,-1%
O=C(CN1CCOCC1)N/N=C/c1ccc(C(=O)O)cc1,7%
COc1ccccc1/C=N/NC(=O)CC(=O)NCc1cccnc1,-13%
CCN(c1ccccc1)S(=O)(=O)c1cccc(C(=O)NCc2cccnc2)c1,0%

# Looked up above.
# Reading for O=C(NCCCc1ccccc1)N1CCOCC1 in VDR inh: 1%
# Reading for Cc1ccc(SCc2nc(-c3ccc(C(=O)NCC(C)c4ccccc4)cc3)oc2C)cc1 (centres undefined) in VDR inh: 3%
# Reading for O=Cc1ccc(OC(=O)C2CC(=O)N(c3ccc(F)cc3)C2)cc1 (centres undefined) in VDR inh: -26%
# Reading for CCOc1ccc(OCCC(=O)N2CCN(S(=O)(=O)c3ccc(F)cc3)CC2)cc1 in VDR inh: 1%
# Reading for CCNC(=S)N/N=C/c1ccccc1[N+](=O)[O-] in VDR inh: -21%

# Reformatted: seven of the compounds above.
VDR inh,SMILES
9%,CCOC(=O)N1CCN(c2c(NCCN(C)Cc3ccccc3)c(=O)c2=O)CC1
4%,CCOCCCN(Cc1cc2cc(C)cc(C)c2[nH]c1=O)C(=O)N(CC)CC
-13%,COC(=O)c1cccc(NC(=O)CC2C(=O)NCCN2C(=O)c2ccc(F)cc2F)c1 (centres undefined)
-21%,CN=C(NC1CCCCC1)c1ccc([N+](=O)[O-])cc1
1%,COc1ccc(CN2COc3ccc4c(-c5ccc(OC)cc5)cc(=O)oc4c3C2)cc1
-13%,COc1ccccc1/C=N/NC(=O)CC(=O)NCc1cccnc1
-1%,CCn1cc(C(=O)OCC(=O)Nc2cccc(Cl)c2Cl)c(=O)c2ccc(C)nc21
